NOMO-1 viab = STK33 inhibitor candidate reducing NOMO-1 cell viability | NOMO-1 AML viability, CellTiter-Glo luminescence, 72 h | inhibition, % (concentration not given with the values) | AID 2330 | 37,000 compounds, 7.5% hits;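 active = most replicates above 80%; inconclusive = exactly half above 80%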;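 note: wells of about 30 µL received 25 nL stock; 0% = median of vehicle wells and 100% = reference inhibitor level; the first replicate is given; inactives centre near 10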
* hit, by the source's call; ? = inconclusive.

SMILES | NOMO-1 viab
Cc1noc(C)c1NC(=O)Nc1ccc2c(c1)C(=O)N([C@H](C)CO)C[C@@H](C)[C@H](CN(C)C(=O)Nc1ccc(C(F)(F)F)cc1)O2 | 2
C[C@H]1CN([C@@H](C)CO)C(=O)Cc2cc(NC(=O)CCCN(C)C)ccc2O[C@@H]1CN(C)C(=O)Nc1ccc2c(c1)OCO2 | 15
C[C@H]1CN([C@@H](C)CO)C(=O)c2cc(NC(=O)C3CC3)ccc2O[C@@H]1CN(C)S(=O)(=O)c1ccc(F)cc1 | 3
C[C@H](CO)N1C[C@H](C)[C@@H](CN(C)Cc2ccc(Cl)c(Cl)c2)Oc2ccc(NC(=O)Nc3ccccc3)cc2C1=O | ?
Cc1ccc(S(=O)(=O)N(C)CC(=O)Nc2cc(Cl)ccc2Oc2ccccc2)cc1 | 45
C[C@@H]1CN([C@@H](C)CO)C(=O)c2cc(NS(=O)(=O)c3ccccc3)ccc2O[C@@H]1CN(C)Cc1ccncc1 | 8
C[C@@H]1CN([C@@H](C)CO)C(=O)c2cccc(NS(=O)(=O)c3ccc(Cl)cc3)c2O[C@H]1CN(C)Cc1ccc(Oc2ccccc2)cc1 | 15
C[C@@H]1CN([C@H](C)CO)C(=O)c2cc(NC(=O)Cn3cnnn3)ccc2O[C@@H]1CN(C)Cc1ccc(C(=O)Nc2ccccc2N)cc1 | 18
Cc1noc(C)c1NC(=O)Nc1cccc2c1O[C@@H](CN(C)S(=O)(=O)c1cccs1)[C@H](C)CN([C@@H](C)CO)C2=O | 5
NC(=O)C1(N2CCCCC2)CCN(CC(=O)Nc2ccc(F)cc2)CC1 | -1
Cc1ccc(S(=O)(=O)Nc2ccc3c(c2)C(=O)N([C@H](C)CO)C[C@H](C)[C@H](CN(C)Cc2ccc(C(F)(F)F)cc2)O3)cc1 | 93*
CC(C)(C)c1ccc(C(=O)Nc2ccc(NC(=O)COc3ccc([N+](=O)[O-])cc3)cc2)cc1 | 2
COC(=O)c1ccccc1NC(=O)CN(c1ccc(I)cc1)S(C)(=O)=O | 16
O=C(CSc1nnc(-c2ccncc2)n1-c1ccc(F)cc1)c1ccc(Cl)cc1 | 12
COc1ccc(NC(=O)Nc2ccc3c(c2)CC(=O)N([C@H](C)CO)C[C@@H](C)[C@@H](CN(C)Cc2ccccc2)O3)cc1 | 18
C[C@H](CO)N1C[C@H](C)[C@@H](CN(C)Cc2ccc(-c3ccccc3)cc2)Oc2c(NC(=O)Nc3ccccc3)cccc2C1=O | 39
C[C@@H]1CN([C@H](C)CO)C(=O)Cc2cc(NC(=O)CCC(F)(F)F)ccc2O[C@H]1CN(C)Cc1ccccc1 | -5
Cc1noc(C)c1S(=O)(=O)Nc1ccc2c(c1)C(=O)N([C@H](C)CO)C[C@H](C)[C@@H](CN(C)S(=O)(=O)c1ccc(Cl)cc1)O2 | 5
Cc1noc(C)c1NC(=O)N(C)C[C@@H]1Oc2ccc(NC(=O)NC(C)C)cc2C(=O)N([C@@H](C)CO)C[C@H]1C | -16
C/C=C(/C)C(=O)OC1C(OC(C)=O)c2c(ccc3ccc(=O)oc23)OC1(C)C (stereo unspecified) | 18

Of the compounds above, these have a CF3 group.
SMILES | NOMO-1 viab
Cc1noc(C)c1NC(=O)Nc1ccc2c(c1)C(=O)N([C@H](C)CO)C[C@@H](C)[C@H](CN(C)C(=O)Nc1ccc(C(F)(F)F)cc1)O2 | 2
Cc1ccc(S(=O)(=O)Nc2ccc3c(c2)C(=O)N([C@H](C)CO)C[C@H](C)[C@H](CN(C)Cc2ccc(C(F)(F)F)cc2)O3)cc1 | 93*
C[C@@H]1CN([C@H](C)CO)C(=O)Cc2cc(NC(=O)CCC(F)(F)F)ccc2O[C@H]1CN(C)Cc1ccccc1 | -5

(further entries)
SMILES | NOMO-1 viab
C[C@@H]1CN([C@@H](C)CO)C(=O)c2cccc(NC(=O)c3ccc(-c4nccs4)cc3)c2O[C@@H]1CN(C)CC1CC1 | -2
CC(C)=CCc1c(O)cc(O)c2c1OC(c1ccccc1)CC2=O (stereo unspecified) | 28
C=C(C)C(O)C(O)c1c(OC)ccc2ccc(=O)oc12 (stereo unspecified) | -8
C[C@@H]1CN([C@@H](C)CO)C(=O)c2cc(NC(=O)CCC(F)(F)F)ccc2O[C@@H]1CN(C)CC1CC1 | -14
Cc1cc(=O)[nH]c(SCCOc2cccc(Br)c2)n1 | -15
C[C@H](CO)N1C[C@H](C)[C@@H](CN(C)C(=O)Nc2ccc(F)cc2)Oc2ccc(NC(=O)Nc3cccc4ccccc34)cc2C1=O | 11
CCCCc1c(O)nc(SCCC(=O)O)[nH]c1=O | 5
Cc1noc(C)c1NC(=O)N(C)C[C@@H]1Oc2c(cccc2N(C)C)C(=O)N([C@H](C)CO)C[C@H]1C | -2
O=C(Nc1sc2c(c1C(=O)Nc1ccccc1)CCCC2)c1ccccc1 | 32
Cc1[nH]c2ccccc2c1C(=O)CSc1nc2sc3c(c2c(=O)n1-c1ccccc1)CCC3 | 14
COc1ccc(CN(C)C[C@H]2Oc3ccc(NC(=O)CCN4CCOCC4)cc3C(=O)N([C@@H](C)CO)C[C@H]2C)cc1 | 8
COc1ccc(NC(=O)N(C)C[C@H]2Oc3c(NC(=O)C4CCOCC4)cccc3C(=O)N([C@@H](C)CO)C[C@H]2C)cc1 | -4
CCOc1ccccc1NC(=O)CSc1cc(C)c2cccc(C)c2n1 | 20
CC(C)/C(N)=N/C(=S)Nc1ccccc1 | 23
COc1ccc(S(=O)(=O)N(C)CC(=O)Nc2cccc([N+](=O)[O-])c2)cc1Cl | 0
COC(=O)c1cc(NC(=O)c2ccco2)cc(C(=O)OC)c1 | -8
Cc1ccc(NC(=O)Cn2cc([N+](=O)[O-])cn2)cc1Cl | 17
C[C@H]1CN([C@@H](C)CO)C(=O)Cc2cc(N(C)C)ccc2O[C@H]1CN(C)Cc1ccc(Cl)c(Cl)c1 | -1
C[C@@H]1CN([C@H](C)CO)C(=O)c2cccc(NS(=O)(=O)c3ccccc3)c2O[C@H]1CN(C)C(=O)Nc1ccc2c(c1)OCO2 | 15
COc1ccc(S(=O)(=O)Nc2ccc3c(c2)C(=O)N([C@H](C)CO)C[C@H](C)[C@@H](CN(C)C(=O)Nc2ccc4c(c2)OCO4)OCCCC[C@@H](C)O3)cc1 | 29
C[C@H]1CN([C@@H](C)CO)C(=O)Cc2cc(NC(=O)Cc3ccccc3)ccc2O[C@H]1CN(C)Cc1ccccc1 | 49
Cc1ccc(-c2nc3ccccc3c(=O)n2CCCn2ccnc2)cc1 | -15
C[C@@H]1CN([C@@H](C)CO)C(=O)c2cccc(NC(=O)Nc3ccccc3)c2O[C@@H]1CN(C)Cc1ccccc1 | 17
COc1ccc2c(c1)cc(C)c1nnc(SCC(=O)Nc3cccc(C(C)=O)c3)n12 | 13
C[C@H]1CN([C@@H](C)CO)C(=O)Cc2cc(NC(=O)CCC(F)(F)F)ccc2O[C@H]1CN(C)Cc1ccc(Oc2ccccc2)cc1 | 33
C[C@H](CO)N1C[C@H](C)[C@@H](CN(C)C(=O)Nc2ccc(F)cc2)Oc2c(cccc2N(C)C)C1=O | 19
C=C1C(=O)OC2CC1C(OC(C)=O)C/C(C)=C\CC/C(C)=C\CC[C@]2(C)O (stereo partly specified) | 111*
CN(CC(=O)Nc1c(F)cccc1F)S(=O)(=O)c1ccc(Cl)cc1 | -17
C[C@H](CO)N1C[C@H](C)[C@H](CN(C)Cc2ccc(C(=O)O)cc2)Oc2ccc(NS(=O)(=O)c3ccc(Cl)cc3)cc2CC1=O | 19
COc1ccc(C(=O)CSc2nnc(-c3ccc(OC)c(OC)c3)n2-c2ccccc2)cc1 | 37
CC(C)NC(=O)N(C)C[C@@H]1Oc2ccc(NS(=O)(=O)c3ccccc3)cc2C(=O)N([C@@H](C)CO)C[C@H]1C | -4
O=C(O)CNC(=O)c1ccc(S(=O)(=O)N2CCCC2)cc1 | -3
COc1ccccc1NC(=O)CSc1nnc(-c2ccccc2Cl)n1-c1ccccc1 | 61
C[C@H]1CN([C@@H](C)CO)C(=O)Cc2cc(NC(=O)CCN3CCOCC3)ccc2O[C@@H]1CN(C)Cc1ccc(Cl)c(Cl)c1 | 15
C[C@@H]1CN([C@@H](C)CO)C(=O)c2cccc(NS(=O)(=O)c3cccs3)c2O[C@H]1CN(C)Cc1ccc(C(F)(F)F)cc1 | 18
CCc1ccccc1NC(=O)CSc1nnc(-c2cccc(C)c2)n1C | -8
Cc1ccc(NC(=O)C(C)Oc2ccc(Br)cc2)c([N+](=O)[O-])c1 (stereo unspecified) | 3
Cc1cc(C)nc(NS(=O)(=O)c2ccc(Nc3nc(-c4ccc(F)cc4)cs3)cc2)n1 | 10
CN(Cc1nc(-c2cccnc2)no1)S(=O)(=O)c1ccc2ccccc2c1 | 6
CNC[C@@H]1Oc2ccc(NS(=O)(=O)c3ccc(Cl)cc3)cc2CC(=O)N([C@H](C)CO)C[C@@H]1C | 5
C[C@H]1CN([C@@H](C)CO)C(=O)Cc2cc(NC(=O)Cn3cnnn3)ccc2O[C@@H]1CN(C)S(=O)(=O)c1ccc(F)cc1 | 28
Nc1cccc(NC(=O)c2cccc(S(=O)(=O)Nc3cccc(N)c3)c2)c1 | 11
Cc1noc(C)c1NC(=O)Nc1cccc2c1O[C@@H](CN(C)Cc1ccc(C(=O)O)cc1)[C@@H](C)CN([C@@H](C)CO)C2=O | -3
O=C(Cc1ccccc1)Oc1ccc(C2SCCS2)cc1 | 24
C[C@@H]1CN([C@H](C)CO)C(=O)c2cccc(NC(=O)Nc3ccccc3)c2O[C@@H]1CN(C)Cc1ccc(-c2ccccc2)cc1 | 18
CC(C)NC(=O)Nc1ccc2c(c1)C(=O)N([C@@H](C)CO)C[C@@H](C)[C@H](CN(C)C)O2 | -9
O=C(COc1ccccc1)Nc1ccc(Cl)cc1C(=O)O | 23
Cc1noc(C)c1NC(=O)N(C)C[C@H]1Oc2c(NC(=O)c3cnccn3)cccc2C(=O)N([C@@H](C)CO)C[C@H]1C | 14
CC(C)NC(=O)N(C)C[C@@H]1OCCCC[C@@H](C)Oc2ccc(NS(=O)(=O)c3ccc(F)cc3)cc2C(=O)N([C@H](C)CO)C[C@@H]1C | 17
COc1ccc(S(=O)(=O)n2nc(C)cc2C)cc1N(C)S(=O)(=O)c1ccccc1 | -24

Later entries
SMILES | NOMO-1 viab
C[C@@H]1CN([C@H](C)CO)C(=O)c2cccc(NC(=O)C3CCCCC3)c2O[C@H]1CN(C)S(=O)(=O)c1ccc(Cl)cc1 | -14
C[C@@H]1O[C@@H](O[C@H]2[C@@H]3C=CO[C@@H](O[C@@H]4O[C@H](CO)[C@@H](O)[C@H](O)[C@H]4O)[C@@H]3[C@@]3(CO)O[C@@H]23)[C@H](O)[C@H](OC(=O)/C=C/c2ccccc2)[C@H]1O | 46
C[C@H](CO)N1C[C@H](C)[C@H](CN(C)C(=O)Nc2ccc(F)cc2)Oc2ccc(NC(=O)NC3CCCCC3)cc2CC1=O | 11
CCn1c(SCc2nc3ccccc3c(=O)[nH]2)nnc1-c1ccccc1C | 4
Cc1cc2ncc(-c3ccnc(SCc4c(Cl)cccc4Cl)n3)c(C)n2n1 | 16
CC1(C)CC(=O)c2cc(C(=O)NCc3ccco3)c(=O)n(-c3ccc(Cl)cc3)c2C1 | 26
C/C(=C\CCC1(C)C2CCC(C2)C1(C)O)C(=O)O (stereo unspecified) | 12
C[C@@H]1CN([C@H](C)CO)C(=O)c2cccc(NC(=O)C3CC3)c2O[C@@H]1CN(C)Cc1ccc(C(F)(F)F)cc1 | -1
CN1CCN(C(=O)CN(c2cccc3ccccc23)S(C)(=O)=O)CC1 | -1
CC(=O)O[C@@H]1CC2C(C)(C)CCC[C@]2(C)C2CC[C@]3(C)C(=CC(=O)O[C@H]3c3ccoc3)[C@@]21C (stereo partly specified) | 99*
O=C(NCCCn1ccnc1)c1cc2c(s1)CCCC2 | -2
O=C(CSc1nc2ccc(NC(=O)c3ccccc3Br)cc2s1)Nc1ccccc1 | 20
CCC(=O)c1cn(CC(=O)NCCOc2ccc(Cl)cc2)c2ccccc12 | 12
COc1ccc(Cl)cc1NC(=O)CSc1nnc(-c2ccc(Cl)c(Cl)c2)n1C | 18
COc1ccc(S(=O)(=O)Nc2ccc3c(c2)CC(=O)N([C@H](C)CO)C[C@@H](C)[C@H](CN(C)S(=O)(=O)c2ccc(Cl)cc2)O3)cc1 | -21
C[C@H](CO)N1C[C@H](C)[C@H](CN(C)S(=O)(=O)c2cccs2)Oc2ccc(NC(=O)CCN3CCOCC3)cc2C1=O | 1
COc1ccc(CN(C)C[C@H]2OCCCC[C@@H](C)Oc3ccc(NS(=O)(=O)c4ccc(Cl)cc4)cc3C(=O)N([C@H](C)CO)C[C@@H]2C)cc1 | 46
Cc1ccc(S(=O)(=O)Nc2ccc3c(c2)C(=O)N([C@H](C)CO)C[C@H](C)[C@@H](CN(C)C(=O)Nc2cccc4ccccc24)OCCCC[C@@H](C)O3)cc1 | 67

Molecules above with two or more sulfur atoms, in the order listed:
SMILES | NOMO-1 viab
Cc1noc(C)c1NC(=O)Nc1cccc2c1O[C@@H](CN(C)S(=O)(=O)c1cccs1)[C@H](C)CN([C@@H](C)CO)C2=O | 5
Cc1noc(C)c1S(=O)(=O)Nc1ccc2c(c1)C(=O)N([C@H](C)CO)C[C@H](C)[C@@H](CN(C)S(=O)(=O)c1ccc(Cl)cc1)O2 | 5
Cc1[nH]c2ccccc2c1C(=O)CSc1nc2sc3c(c2c(=O)n1-c1ccccc1)CCC3 | 14
C[C@@H]1CN([C@@H](C)CO)C(=O)c2cccc(NS(=O)(=O)c3cccs3)c2O[C@H]1CN(C)Cc1ccc(C(F)(F)F)cc1 | 18
Cc1cc(C)nc(NS(=O)(=O)c2ccc(Nc3nc(-c4ccc(F)cc4)cs3)cc2)n1 | 10
O=C(Cc1ccccc1)Oc1ccc(C2SCCS2)cc1 | 24
COc1ccc(S(=O)(=O)n2nc(C)cc2C)cc1N(C)S(=O)(=O)c1ccccc1 | -24
O=C(CSc1nc2ccc(NC(=O)c3ccccc3Br)cc2s1)Nc1ccccc1 | 20
COc1ccc(S(=O)(=O)Nc2ccc3c(c2)CC(=O)N([C@H](C)CO)C[C@@H](C)[C@H](CN(C)S(=O)(=O)c2ccc(Cl)cc2)O3)cc1 | -21
C[C@H](CO)N1C[C@H](C)[C@H](CN(C)S(=O)(=O)c2cccs2)Oc2ccc(NC(=O)CCN3CCOCC3)cc2C1=O | 1

Screening data as filed in PubChem BioAssay.

Only part of the results is shown; the hit share may differ from the screen's.
